Compound activity as filed in PubChem BioAssay.
NPYLR7 agonist: mosquito NPYLR7 agonism; HEK293T NPYLR7/Galpha15, GCaMP6s calcium fluorescence; activation, % at 10 µM; 270,000 tested, 0.15% active; AID 1259423; in the data active = activation above about 40%;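 also: 0% = vehicle and 100% = reference agonist at the receptor; some compounds past the cut are filed as inactive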
NPYLR7 agonist max-min: also measured in NPYLR7 agonist; calls as there; activation, %; measured here: Max-Min RFU normalised activation; some inactives read as strong as hits;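 span of the calcium signal over five minutes; 0% = vehicle and 100% = native peptide agonist; compound fluorescence can raise it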
The depositor's hits bear a star; & = joins results of further samples.

SMILES	NPYLR7 agonist	NPYLR7 agonist max-min
CC(NCc1cc(F)ccc1C(F)(F)F)C(=O)NC1CCCC1 (stereo unspecified)	-1	9
CCCCNC(=O)c1ccc2nc(CC)c(N(C)CCCc3ccccc3)n2c1	17	9
Cc1cccc2[nH]c(C3CCCN(S(=O)(=O)NCc4ccccc4)C3)nc12 (stereo unspecified)	4	1
O=C(c1ccoc1)N1CCC2(CCNC2=O)CC1	6	8
OC(CCN1CCCCC1)(c1ccccc1)c1ccccc1	-10&-1&6	-17&-4&5
NS(=O)(=O)c1cc(C(=O)O)c(NCc2ccco2)cc1Cl	-8&-6&-4	-12&-13&-5
CC(C)Oc1ccc(CNCc2ccc(S(C)=O)cc2)cc1F (stereo unspecified)	2	3
CC(C)=CCC/C(C)=C/CNC(=O)Nc1ccc(Cl)c(C(F)(F)F)c1	-6	-14
Nc1[nH]n(-c2ccccc2)c(=O)c1N=Nc1ccc2c(c1)OCCO2	2&22	5&8
CCn1ncc(Cl)c1C(=O)N1CCN(C)C2(CCN(C)CC2)C1	4	3
Cc1ccsc1CN(C/C=C/c1ccco1)Cc1ccccn1	4	-5
Cc1ccccc1C1c2ccsc2CCN1C(=O)CN(C(=O)Cc1cccs1)C1CC1 (stereo unspecified)	1	6
CCOc1ccc(NC(=O)CC(=O)N2CCC3(CCCN(C)C3=O)C2)cc1 (stereo unspecified)	1	-1
Cc1ccc(C)c(CN(CC(=O)N2CCSC2c2ccc(F)cc2)C(C)C)c1 (stereo unspecified)	13	26
COCCN(Cc1cnn(C)c1)C(=O)c1c(F)ccc(C)c1F	1	54
O=C(O)CCNCc1ccc2n1CCN=C2C1CCCC1	18	10
CCCc1nc(CNC(=O)C2CC(C)=NO2)cs1 (stereo unspecified)	0	11
CCOC(=O)C1(CC2CCCCO2)CCN(Cc2ccc3ncccc3c2)CC1 (stereo unspecified)	6&6	3&6
COc1ccc(C2c3cccn3-c3ccccc3N2C(=O)CN(C(=O)c2cccc(Br)c2)C2CC2)cc1 (stereo unspecified)	23	26
COc1cccc(-c2cnc3c(NC=O)cc(-c4ccc(OC)nc4)cn23)c1	-4	-10
CCCOc1cccn2c(N(C)C(=O)c3cccs3)c(CC)nc12	4	-7
O=C(c1ccc(OCC2CCCO2)cc1)N1CCN(c2cnccn2)CC1 (stereo unspecified)	8	2
CCCCCCCC(=O)NC(C)c1nnc(SCc2cccc(OC)c2)n1-c1ccc([N+](=O)[O-])cc1 (stereo unspecified)	9	17
O=S(=O)(C1CC1)N1CC[C@@H](c2ccc3c(c2)OCO3)[C@H](O)C1	2	3
COc1ccc2c(c1)C1(NCCS1)C(=O)N2Cc1c(F)cccc1F (stereo unspecified)	20	24
Cn1ccnc1Sc1ccc(NS(=O)(=O)c2ccc(Cl)cc2F)cc1	-1	-4
Cc1cc(C)cc(C(=O)NCC(c2ccc(N(C)C)cc2)N(C)C)c1 (stereo unspecified)	4	2
COC1CCCN(C(=O)c2oc3c(Cl)cc(C)cc3c2C)C1 (stereo unspecified)	2	-2
Cc1ccc(C)c(OCC(=O)N2CCC(CCN3CCCC3=O)CC2)c1C	3	-11
COc1ccc(-c2ccc(=O)n(CCNS(=O)(=O)c3cc(C)cc(C)c3)n2)cc1	-2	-3
COc1ccc(C(=O)N2CCC3(CC2)OCC(C(=O)NCC2CCCO2)N3C(=O)c2ccccc2C)cc1OC (stereo unspecified)	19	31
O=C(C1CCCO1)N1CCN(Cc2cccc(-c3noc(-c4cccs4)n3)c2)CC1 (stereo unspecified)	8	14
O=C(Cc1nc2cc(-c3ccc(Cl)cc3Cl)sc2c(=O)[nH]1)NC1CCCC1	4	-3
CCC(=O)Nc1ccc(OCC(=O)N2C[C@]3(C)C[C@H]2CC(C)(C)C3)cc1	-2	-6
c1ccc(-c2cnnc(N3CCCCCCC3)n2)cc1	20&-8	10&-10
CC1CN(CC(=O)Nc2sc3c(c2C#N)CCCC3)CCO1 (stereo unspecified)	4	-3
COCCOC(=O)c1[nH]c2c(c1C)C(=O)C(C(=O)OC)C(C)C2 (stereo unspecified)	13	6
CCCN(CCC)C(=O)c1cc(-c2ccc(F)cc2)nc2cc(C(C)(C)C)nn12	-4	3
CC(CCc1ccco1)NC(=O)c1ccc2c(c1)OCCCO2 (stereo unspecified)	5	1
CCOc1ccc(-c2ccc(C(=O)N3CCN(c4ccc(NC(=O)c5ccccc5OCC)cn4)CC3)s2)cc1	4	-1
Cc1csc(SCCn2c(N3CCC(C(N)=O)CC3)nc3c2c(=O)[nH]c(=O)n3C)n1	-1	-1
COc1ccc(C(=O)N2CCSC23CCN(C(=O)Nc2ccccc2C(F)(F)F)CC3)cc1	9	16
CCc1cnc2c(c1OC)c(=O)n(CC(=O)N1CCCCC1)c(=O)n2C	1	-3
CCSc1n[nH]c2nc3ccccc3n12	-5	-5
CN1C(=O)OC(C)(C)C1=O	-5	-8
Cc1cnccc1NCCNC(=O)c1cn(Cc2ccc(F)cc2)nn1	0	0
NC(=O)c1ccc(NC(=O)CSc2cn(CC(=O)N3CCCCC3)c3ccccc23)cc1	-8	-12
COc1ccc(Nc2nc(N)nc(COc3ccc(OC)cc3)n2)cc1	0	-3
CCOc1cc(Br)c(CCl)cc1OCC	5	3
COC(C)(C)Cn1ccnc1-c1ccccc1C	2	-4
Cc1ccc(Nc2nc(-c3cnc(N4CCCC4)nc3C)cc(=O)[nH]2)c(C)c1	-4	-4
COCCNC(=S)NNC(N)=S	5	5
COCCC1CCCCN1C(=O)c1cccc2[nH]c(C)nc12 (stereo unspecified)	2	-8
Cc1ccc(OCC(=O)NC2CCCC(C)C2C)cc1 (stereo unspecified)	-2	-3
CCn1c(SCC(=O)NN=C(C)c2ccc(OC(C)=O)cc2)nc2ccccc21	-2	-6
CC(C)N(CCNS(=O)(=O)c1ccccc1S(C)(=O)=O)C(C)C	-2	-3
Cc1cccc(N2CCN(Cc3cnc(S(C)(=O)=O)n3CC(C)C)CC2)n1	0	-9
C#CCOCC(O)CN(CCOC)Cc1c(CC)nn(-c2ccccc2)c1Oc1ccc(F)cc1F (stereo unspecified)	8	11
COc1ccccc1N1CCN(C2CCCN(C(=O)c3cc(C)c[nH]3)C2)CC1 (stereo unspecified)	7	0
COc1ccccc1N1CCN(C2CCCN(C(=O)/C=C/c3ccccn3)C2)CC1 (stereo unspecified)	14	5
New compounds follow:
SMILES	NPYLR7 agonist	NPYLR7 agonist max-min
O=C(NCc1cccnc1)C(CCO)Sc1nc2sc3c(c2c(=O)[nH]1)CCCC3 (stereo unspecified)	7	34
O=S(=O)(c1ccc2c(c1)CCN2)N1CCOCC1	-1	4
Cc1ccc(-c2nc3ccccn3c2NC(=O)CC(C)CC(C)(C)C)cc1 (stereo unspecified)	-4	-1
Cc1cc(C)c(N=Nc2c(-c3ccccc3)[nH]n(-c3ccccc3)c2=O)c(C)c1	-7	-10
COCc1cc(NS(=O)(=O)c2cc(OC)c(OC)cc2C)cc2c1OCOC2	5	2
O=C1C(=Cc2cccnc2)SC(=S)N1c1cccnc1	0	0
CCOCCn1c(=O)c2c(nc3n2CC(C)CN3c2cccc(OC)c2)n(C)c1=O (stereo unspecified)	8	0
COC(=O)c1ccc(CNC(=O)C2CCC(=O)N(Cc3ccccc3OC)C2)cc1 (stereo unspecified)	20	12
COc1cc(-c2ccc3c4c(ccc3c2)OC(CN)C4)cc(OC)c1OC (stereo unspecified)	-3	-6
CCN(CC)S(=O)(=O)c1ccc(N2CCOCC2)c(NC(=O)c2ccc(-c3nc(C)no3)cc2)c1	8	10
COc1ccc(NC(=O)C2(C)CCN2C(=O)Cc2ccsc2)cc1OC (stereo unspecified)	4	3
CC(=O)NCCn1ccnc1-c1ccc(OC(F)(F)F)cc1	27	18
COc1ccc(Oc2ccc(C(=O)NCc3ccoc3)cc2)cc1	-6	-8
O[C@@H]1CN(Cc2ccoc2)CC[C@H]1c1ccc2c(c1)OCO2	4	4
Cc1ccc(NC(=O)CNC(=O)Cc2c(C)[nH]c3ccccc23)c(F)c1	2	0

Shown with each value named: entries from further up.
> COc1cc(-c2ccc3c4c(ccc3c2)OC(CN)C4)cc(OC)c1OC (stereo unspecified)
  NPYLR7 agonist: -3 | NPYLR7 agonist max-min: -6

> CC(=O)NCCn1ccnc1-c1ccc(OC(F)(F)F)cc1
  NPYLR7 agonist: 27 | NPYLR7 agonist max-min: 18

> O=S(=O)(c1ccc2c(c1)CCN2)N1CCOCC1
  NPYLR7 agonist: -1 | NPYLR7 agonist max-min: 4

> CCOCCn1c(=O)c2c(nc3n2CC(C)CN3c2cccc(OC)c2)n(C)c1=O (stereo unspecified)
  NPYLR7 agonist: 8 | NPYLR7 agonist max-min: 0

The listing continues:
SMILES	NPYLR7 agonist	NPYLR7 agonist max-min
C=C(C)CNC(=O)c1sc2ccc(OC)cc2c1Cl	2	3
COCCNC(=S)NN=CC1CC=CCC1 (stereo unspecified)	13	9
CC1=NOC(C)(CNC(=O)c2cc(CC(C)C)nn2C)C1 (stereo unspecified)	-1	-4
COCCN(CCOC)c1cc(-c2ccccc2)ncn1	-1	-1
CCCNC(=O)Cn1nc(-c2cccs2)c2sc(N3CCOCC3)nc2c1=O	-4	-8
COCC(C)Nc1ccc2nnc(C3CC3)n2n1 (stereo unspecified)	0	-2
Cc1cc(S(=O)(=O)Nc2ccc(N(C)C)cc2)c(C)s1	1	-1
O=C(Nc1ccccc1OCC1CCCO1)NC1CCCCC1 (stereo unspecified)	1	-1
COc1ccc(C(=O)N2CCC3(CCCN(Cc4cccnc4)C3=O)C2)o1 (stereo unspecified)	2	0
CN1C(=O)C2(CCN(C(=O)c3cccc4c3ccn4C)CC2)c2ccccc21	4	4
COCCN1C(=O)CC(CC(=O)N2CCCC(c3cccc(C)c3)C2)(c2ccccc2OC)C1=O (stereo unspecified)	-5	-9
CCCOC1CCCN(C(=O)c2ccc(S(N)(=O)=O)cc2)C1 (stereo unspecified)	2	2
CCC(C)(C)NCc1cccc(Oc2ncccn2)c1	1	0
COc1cccc(-n2cc(CN(C)Cc3ccsc3)cn2)c1	4	2
CCOC(=O)C(C)(C)Sc1nc2c(c(=O)n1-c1ccc(OCC)cc1)SCC2	0	52

Part of the list above in order of heavy-atom count, highest first:
SMILES	NPYLR7 agonist	NPYLR7 agonist max-min
CCCNC(=O)Cn1nc(-c2cccs2)c2sc(N3CCOCC3)nc2c1=O	-4	-8
COc1cccc(-n2cc(CN(C)Cc3ccsc3)cn2)c1	4	2
COCCN(CCOC)c1cc(-c2ccccc2)ncn1	-1	-1
CCC(C)(C)NCc1cccc(Oc2ncccn2)c1	1	0
COCCNC(=S)NN=CC1CC=CCC1 (stereo unspecified)	13	9

Additional entries follow:
SMILES	NPYLR7 agonist	NPYLR7 agonist max-min
O=C1OC(c2ccc(Br)cc2)=N/C1=C\N1CCN(c2ccc([N+](=O)[O-])cc2)CC1	2	0
CN(c1cc(Cl)nc(SCc2cccc(C(=O)O)c2)n1)C1CCCCC1	-10	-19
COc1cccc(COc2cn(C)c(C(=O)NCCc3ccccc3OC)cc2=O)c1	4	4
CCCCCn1cc(C2CCN(S(=O)(=O)c3ccc(C)cc3OC)CC2)c2ccccc21	8	0
CC1(CO)CCCC1Nc1cnn(CCOc2ccc(Cl)cc2)c(=O)c1Cl (stereo unspecified)	5	-3
CN(CCCc1ccccc1)C(=O)c1[nH]ncc1Br	7	8
Cc1n[nH]c(C)c1CNC(=O)c1c(F)cc(F)cc1F	-20	-19
O=C1C(=C2NCCN2)CC/C1=C/c1ccco1	9	1
COc1ccc(C2(C#N)CCC(O)(C#N)CC2)cc1OC (stereo unspecified)	-8	-11
Cc1ccc(CN(Cc2ccccc2)C(=O)c2ccc(Cl)c([N+](=O)[O-])c2)o1	-1	-10
O=C(c1cccs1)N1CCCC(OCc2ccc(Br)cc2)C1 (stereo unspecified)	-7	-3
CCCCNC(=O)CC1SC(=NC)N(C)C1=O (stereo unspecified)	0	-2
CCCCOc1ccc(C(=O)N/C(=C/c2ccc(OC(C)C)cc2)C(=O)NCC)cc1	6	7
CCOC(=O)c1c(C)c(C(=O)NCCC(C)C)c(C)n1Cc1ccccc1	3	25
Cc1ccc(NC(=O)CSc2n[nH]c(C3CCCC3)n2)c(Br)c1	0	5
Cc1cccc(CN2CCC(N3CCC(C(=O)N(C)Cc4c(C)n[nH]c4C)CC3)CC2)n1	5&-2	0&-6
COC(=O)c1ccc(-c2cc(Cl)cc3c2OC(CNC(=O)C2CCOC(C)(C)C2)C3)cc1 (stereo unspecified)	29	17
COc1cccc(CN(Cc2ccco2)CC(O)COCc2ccccc2)c1 (stereo unspecified)	-3	8
COc1cccc(C2c3c([nH]c(=O)[nH]c3=O)N=C3COC(=O)C32)c1OC (stereo unspecified)	3	5

An excerpt (hit frequency here may not be typical).
